RE007 growth inh – less growth of the S. pombe RE007 Vpr strain; 0.21% of 360,000 active; Potency, µM (doses to about 92.2 µM), for inactives: top-dose activity change, negative = less growth; S. pombe RE007 Vpr strain, BacTiter-Glo ATP luminescence, 24 h; control for the full effect not named in the record; active = well fitted falling curve with a large enough effect; inconclusive = small, poorly fitted or top-dose-only effect; inactive = no such curve, though single readings can be large or run the other way;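 further: nearly all actives have a fitted effect of over 50% in size; the assay follows cell death caused by Vpr and the record does not say whether a fall means rescue or toxicity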
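Fission yeast RE007 carrying one integrated HIV-1 vpr copy, seeded at OD 0.01 in PMG+AL medium with 23 nL pinned compound. Grown 24 h at 30 degrees; viability read by BacTiter-Glo luminescence after 5 min.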
StopGo reporter – lowers the luciferase signal of an FMDV 2A StopGo reporter; 1.2% of 410,000 active; human cells with a luciferase reporter of 2A StopGo recoding; control for the full effect not named in the record; Potency, µM (series often up to 57.9 µM), inactives show at the highest dose signal change, negative = less light; active = well fitted falling curve with a large enough effect; inconclusive = small, poorly fitted or top-dose-only effect; inactive = no such curve, though single readings can be large or run the other way; tested in HEK293T cells; further: nearly all actives have a fitted effect of over 45% in size; luciferase light after 4 h
An asterisk follows results filed as active; ? = inconclusive; [ ] = remark or other dose. On the % scale 0 is the no-effect control and ±100 the full control effect; potency means the concentration at half of the fitted maximal effect. These rows are one share of the data. The share of hits here may be higher or lower than overall.

Under each structure: RE007 growth inh	StopGo reporter
O=C(Nc1ccn(CCCNCc2ccc3[nH]ccc3c2)c(=O)n1)OCc1ccccc1
    -7%	-3%
Nn1c(SCC(=O)NC2CCCCCC2)nnc1-c1ccco1
    -9%	-11%
CN(C)CCN(C)c1cc2c(c3c1ccn3C)C1CCC2O1 (stereo not drawn)
    -3%	-15%
COc1ccc(CCN2C(=O)c3ccccc3C2c2nnnn2-c2ccc3c(c2)OCCO3)cc1OC (stereo not drawn)
    2%	-3%
CC(=O)NC(C)(c1ccccc1)c1nc(-c2cccc(C(F)(F)F)c2)cs1 (stereo not drawn)
    27%	-24%
COc1ccc(NC(=O)c2cc(-c3sc(NC(=O)c4ccccc4)nc3C)n(-c3ccc(Br)cc3)n2)cc1
    -14%	15%
CCCCc1cc(=O)oc2cc(OC(C)C(=O)NCCN3CCOCC3)ccc12 (stereo not drawn)
    8%	-9%
Cc1cccc(C)c1NC(=O)C(CCc1ccccc1)n1c(=O)c(-c2cc3ccccc3[nH]2)nc2ccccc21 (stereo not drawn)
    7%	-7%
COC(=O)[C@@]12C[C@@H](CC(=O)NCCCCc3ccccc3)C(=O)N(Cc3cccc4ccccc34)C1=CCC(C)(C)C2
    6%	-16%
CCCCN1CC[C@H]2C=CC[C@@H](C(=O)Nc3ccc(Cl)cc3Cl)[C@H]2C1=O
    -14%	-6%
COc1ccc(NC(=O)CC(=O)Nc2ccc(OC)cc2)cc1
    3%	-2%
COC(=O)[C@@]12C[C@@H](CC(=O)NCCCN3CCCC3=O)C(=O)N(CCc3ccc(OC)c(OC)c3)C1=CCC(C)(C)C2
    8%	-7%
C[C@H]1CN(c2ccc(Br)cc2)C(=O)[C@@H]1CC(=O)Nc1ccccc1
    1%	-26%
Cc1ccc(OCCC(=O)NNC(=O)c2ccncc2)cc1
    -5%	-15%
CC(C)C[C@H]1CNC(=S)N1C[C@H]1CCCN1C[C@H](CC(C)C)N1C[C@H](Cc2ccc(O)cc2)N(CCc2ccccc2)C1=S
    5%	?
Cc1ccc2ccccc2c1C(O)c1ncc(-c2ccc(C(F)(F)F)cc2)[nH]1 (stereo not drawn)
    6%	-16%
CCCOc1ccc(C(=O)Nc2ccc(N3CCOCC3)cc2N2CCOCC2)cc1OCC
    6%	0%
CCCCC(=O)N(C)c1c(CC)nc2c(OCC(=O)N3CCOCC3)cccn12
    -1%[18.4 µM]	-20%
Cc1ccc(-c2csc(C(C)(O)c3ccc(F)c(F)c3)n2)cc1C (stereo not drawn)
    8%[18.4 µM]	-20%
O=C(O)c1ccc(Cl)c(NC(=O)C2CCN(S(=O)(=O)c3ccc4c(c3)OCCO4)CC2)c1
    -5%	-4%
Cc1noc(C)c1S(=O)(=O)NC(=O)C1(C)CCN1C(=O)Cc1ccc(Cl)cc1Cl (stereo not drawn)
    -4%[18.4 µM]	-12%
Cc1cc(C(O)c2ncc(-c3cccc(F)c3)[nH]2)ccc1F (stereo not drawn)
    11%	42%[activator]
Nc1nc2ccccc2cc1C(=O)NCc1ccc(Cl)cc1Cl
    ?	?
CCCCCOc1ccc(/C=N/NC(=O)c2nnn(-c3nonc3N)c2CN2CCCCCC2)cc1
    -4%	-16%
Cc1c(C(=O)NCc2ccc(Cl)c(Cl)c2)sc(=O)n1Cc1ccc(S(=O)(=O)N(C)C)cc1
    15%[18.4 µM]	22µM*
CC(C)Oc1cc(F)ccc1-c1cc(C(=O)NCC2CCCCC2)[nH]n1
    7%	-7%
C[C@H]1CN([C@@H](C)CO)C(=O)CCCn2cc(nn2)CO[C@@H]1CN(C)C(=O)Nc1ccc(N2CCCCC2)cc1
    5%	-14%
CC(C)(C)OC(=O)NCCCCCNC(=O)c1ncn2c1c(=O)[nH]c1ccccc12
    16%	?
OC[C@@H]1CN(CCc2ccccc2)C[C@H](n2cnc3c(NCc4ccc(F)cc4)ncnc32)O1
    5%	0%
C#Cc1ccc(NC(=O)C2(C)CCN2C(=O)c2ccccc2CCc2ccccc2)cc1 (stereo not drawn)
    1%	-25%
O=C(NCc1ccccc1)C(c1ccncc1)n1c(=O)c(-c2cc3ccccc3[nH]2)nc2ccccc21 (stereo not drawn)
    -2%	21%
CC(=O)c1ccc(Nc2nc(C(N)c3ccccc3Cl)cs2)cc1 (stereo not drawn)
    -1%	-26%
CCc1nc2c(OCC(=O)c3ccc(F)cc3)cccn2c1N(C)C(=O)c1ccc(OC)cc1
    -18%[18.4 µM]	-11%
CCC(c1nnnn1-c1c(C)cccc1C)N1CCN(c2cccc(C(F)(F)F)n2)CC1 (stereo not drawn)
    14%	?
O=C(NCCc1ccc(F)cc1)C1CCC(=O)N(CC2CCCCC2)C1 (stereo not drawn)
    -5%	-7%
CCOC(=O)CCCCCNC(=O)c1c(O)[nH]c(=O)[nH]c1=O
    8%	-6%
COCCNC(=O)C1Nc2ccc(OC(F)(F)F)cc2C2C=CCC12 (stereo not drawn)
    -15%	-24%
O=C(NCC1CCCO1)c1[nH]c(C(F)(F)F)nc1-c1ccccc1 (stereo not drawn)
    0%	-20%
Cc1ccc(F)cc1C(=O)N1CCOCC1c1cc(C(=O)NCc2ccccc2)no1 (stereo not drawn)
    3%[18.4 µM]	-1%
CN(Cc1ccccc1)C(=O)c1ccc(NC(=O)Cc2ccc(NC(=O)C3CCN(C(=O)c4ccccc4)CC3)cc2)cc1
    -2%	-20%
O=C1NCN(c2ccccc2)C12CCN(C(CCc1ccccc1)c1nnnn1-c1ccc3c(c1)OCCO3)CC2 (stereo not drawn)
    12%	-9%
CN1CCN(C2CN(C3CCCC3)S(=O)(=O)C2)CC1 (stereo not drawn)
    7%	-6%
O=C1NC[C@H](CCCCN2C[C@H](Cc3ccccc3)N(Cc3ccccc3)C(=O)C2=O)N(CC2CCCCC2)C1=O
    2%	27%
COc1ccc2nc(-c3ccccc3)[nH]c(=O)c2c1
    -27%	37%[activator]
Cc1ccc([C@@H]2C[C@H]3[C@@H](CN2S(=O)(=O)c2ccc(C)cc2)C(=O)C[C@@H](c2ccc(C)cc2)N3S(=O)(=O)c2ccc(Cl)cc2)cc1
    -3%	-17%
O=C(Nc1ccc2c(c1)OCO2)c1csc([C@@H]2C[C@H](O)[C@@H](CO)O2)n1
    6%[18.4 µM]	25%
Cc1ccc(S(=O)(=O)N2C[C@H]3[C@H]4C(=O)N(C5CCCCC5)C(=O)[C@H]4CC(=O)[C@H]3[C@@H]2c2cccc3ccccc23)cc1
    3%	-15%
CC(c1nc2ccccc2[nH]1)n1c(=O)c(-c2cccs2)nc2ccccc21 (stereo not drawn)
    -5%	-7%
CC1(C(=O)NCc2ccc(C(F)(F)F)cc2)CCN1Cc1ccccc1OC(F)F (stereo not drawn)
    -14%	?
COCCNc1ncnc2c1ncn2[C@H]1CN(Cc2ccc(Cl)cc2)C[C@@H](CO)O1
    14%	0%
Cc1ccc(NC(=O)c2ncn(CCCNCCCN(C)C)n2)cc1C
    0%	-15%
O=C1CC2CCCC(C1)S2=O (stereo not drawn)
    -14%	-3%
COc1ccc(NC(=O)COc2ccc(N(C)S(=O)(=O)c3ccc(Cl)cc3)cc2)cc1
    3%	0%
CC(=O)c1ccc(OCc2c(-c3ccccc3)nnn2CC(=O)NS(=O)(=O)c2ccccc2C)cc1
    -3%	-23%
COc1ccc(S(=O)(=O)NC(=O)C2(C)CCN2C(=O)C2(c3ccccc3)CC2)cc1 (stereo not drawn)
    7%[18.4 µM]	25%
CCCCC[C@H](C)N1C[C@@H](COCc2ccccc2)Oc2cc(N3CCC[C@@H]3COC)ccc2S1(=O)=O
    -8%	-4%
COc1ccc([C@@H]2C[C@H]3[C@@H](CN2S(=O)(=O)c2ccccc2)C(=O)C[C@@H](c2ccc(OC)cc2)N3S(=O)(=O)c2ccccc2)cc1
    10%	0%
CCOC(=O)C1=CN(CC)CCC1=O
    2%	-17%
CCOC(=O)N(C)c1c(CC)nc2c(OCc3ccc(OC(F)F)cc3)cccn12
    2%	-21%
CC(C)C[C@H]1CN(CCCC[C@H]2CNC(=O)C(=O)N2CCc2ccc(O)cc2)C(=O)C(=O)N1CCc1ccccc1
    -8%	-18%

Further results:
Under each structure: RE007 growth inh	StopGo reporter
OC(c1ccccc1)C(O)c1ccccc1 (stereo not drawn)
    25%	-11%
CN(C(=O)c1ccc(NC(=O)Cc2cccc(NC(=O)C3CCN(C(=O)C4CCCCC4)CC3)c2)cc1)C1CC1
    5%	12%
C[C@@H]1CN([C@@H](C)CO)C(=O)c2cc(C#Cc3cccc(F)c3)cnc2O[C@H]1CN(C)C(=O)C1CCCCC1
    -22%	-29%
Nc1ccc2c3c(ccc([N+](=O)[O-])c13)CC2
    ?	-26%
O=C(CNC(=O)c1ccc(Br)cc1)OC1CCOC1=O (stereo not drawn)
    -13%	-9%
C[C@@H](NC(=O)[C@@H]1CCCN1C(=O)[C@@H]1CCCN1C(=O)c1ccccc1)c1ccccc1
    2%	-12%
CC1OC(C[N+](C)(C)C)CC1O (stereo not drawn)
    2%	-9%
COC(=O)C1=C(c2cc3ccccc3s2)C[C@@H]2CC[C@H]1N2C(=O)NC1CC1
    2%	-17%
O=C(c1ccc(-n2cncn2)c2ccoc12)N1CCOCC1
    11%	-10%
CC(C)C[C@H]1CN([C@@H](CC(C)C)CN2CCC[C@H]2CN2C(=O)C(=O)NC[C@@H]2Cc2ccc(O)cc2)C(=O)C(=O)N1CC1CCCCC1
    1%	-12%
O[C@H]1CN(CC2CCCCC2)[C@@H](c2ccc(Cl)cc2)C[C@@H]1n1cc(C2CC2)nn1
    -22%	?
N#CCCN(C(=O)COC(=O)c1ccc(Cl)nc1)c1ccc2c(c1)OCCO2
    7%	-22%
Cc1cccc(-c2ccc3[nH]c4c(c3c2)CCN2C[C@@H]([C@H](C)O)[C@@H](N(C)C(=O)NC3CCCCC3)C[C@@H]42)c1
    7%	?
COC(=O)c1csc(-c2ccc(CO)o2)n1
    6%	1%
O=C(Nc1nnc([C@H]2C[C@H](O)[C@@H](CO)O2)s1)Nc1cccc(Cl)c1Cl
    -5%	31%[activator]

Whole records from above. Order of values: RE007 growth inh | StopGo reporter
C[C@@H]1CN([C@@H](C)CO)C(=O)c2cc(C#Cc3cccc(F)c3)cnc2O[C@H]1CN(C)C(=O)C1CCCCC1 is listed with -22% | -29%
COCCNc1ncnc2c1ncn2[C@H]1CN(Cc2ccc(Cl)cc2)C[C@@H](CO)O1 is listed with 14% | 0%
CN1CCN(C2CN(C3CCCC3)S(=O)(=O)C2)CC1 (stereo not drawn) is listed with 7% | -6%
CC(C)(C)OC(=O)NCCCCCNC(=O)c1ncn2c1c(=O)[nH]c1ccccc12 is listed with 16% | ?
COc1ccc(S(=O)(=O)NC(=O)C2(C)CCN2C(=O)C2(c3ccccc3)CC2)cc1 (stereo not drawn) is listed with 7%[18.4 µM] | 25%

Next part:
Under each structure: RE007 growth inh	StopGo reporter
CCOc1ccc(OCCC(=O)OCC(=O)N(CC)c2c(N)n(Cc3ccccc3)c(=O)[nH]c2=O)cc1
    6%	-18%
COc1ccc(OC)c(NC(=O)C2(C)CCN2Cc2ccccc2Cl)c1 (stereo not drawn)
    9%[18.4 µM]	-7%
Cn1c(Oc2ccncc2)nc2cc(-c3ccsc3)sc2c1=O
    -9%	-18%
CCC(CC)C(=O)N(C)c1c(C)nc2c(OCc3cccc(OC)c3)cccn12
    -21%[18.4 µM]	-25%
COC(=O)/C=C1\OCc2cc(C)ccc21
    ?	23%
CCc1nc2ccc(C(=O)Nc3cc(-c4ccccc4)ccc3OC)cn2c1N(C)CCC(C)C
    -18%	0%
O=C(Nc1oc2ccccc2c(=O)c1-c1ccccc1)c1ccco1
    11%	0%
OC(Cc1ccccc1)c1ncc(-c2ccc3ccccc3c2)[nH]1 (stereo not drawn)
    -18%	19%
CC(C)(c1ccc(O)cc1)c1ccc(O)c(C(=O)O)c1
    14%	-4%
CC(C)(C)S(=O)(=O)/C(C#N)=C/c1cccn1S(=O)(=O)c1ccccc1
    -1%	4%
CC(C)Nc1nc(NCCOc2ccccc2Cl)c2sccc2n1
    0%	?
O=C(O)C1CCCN(C(=O)/C=C/c2ccccc2)CC1 (stereo not drawn)
    8%	-3%
COc1ccc(C(=O)N2CCCCC2c2cc(C(=O)NCc3ccccc3)no2)cc1 (stereo not drawn)
    -1%	6%
COc1ccc(CN2C(=O)C(CC(=O)NCCCCc3ccccc3)CC(C(=O)N3CCOCC3)=C2C)cc1 (stereo not drawn)
    2%	-8%
COC(=O)[C@H](CC(C)C)NC(=O)CC[C@H]1O[C@@H](n2ccc(=O)[nH]c2=O)[C@H](O)[C@@H]1O
    12%	-25%
COc1cccc(CN2CCC2(C)C(=O)Nc2cccc3cccnc23)c1OC (stereo not drawn)
    3%[18.4 µM]	?
CCCCCCN1CCN(C2CN(Cc3cn(Cc4ccc(F)cc4)nn3)S(=O)(=O)C2)CC1 (stereo not drawn)
    ?	-19%
CC1(C)CC(Cc2ccc(C(=O)c3ccccc3)cc2)N(C(=O)OC(C)(C)C)N1 (stereo not drawn)
    2%	?
C/C(=N\N(c1ccccc1)c1ccccc1)c1ccc(N)cc1
    -5%	-19%
COc1nc(-c2ccccc2)c2cc(Br)ccc2n1
    -2%	6%
